# Bioassay records (PubChem)
# VDR inhibitor = blocks the human vitamin D receptor; VDR-SRC2-3 peptide fluorescence polarization, 2 h; Potency, µM, for inactives: max response, negative = inhibition, usual class: inhibitors; actives 0.93% (n = 400,000); AID 504847; active = well fitted inhibition curve with a large enough effect; inconclusive = small, poorly fitted or top-dose-only effect, or another doubt; inactive = no such curve, though single readings can be large or run the other way; note: series mostly up to about 120 µM
# Target sequence (P11473 whole entry, looked up): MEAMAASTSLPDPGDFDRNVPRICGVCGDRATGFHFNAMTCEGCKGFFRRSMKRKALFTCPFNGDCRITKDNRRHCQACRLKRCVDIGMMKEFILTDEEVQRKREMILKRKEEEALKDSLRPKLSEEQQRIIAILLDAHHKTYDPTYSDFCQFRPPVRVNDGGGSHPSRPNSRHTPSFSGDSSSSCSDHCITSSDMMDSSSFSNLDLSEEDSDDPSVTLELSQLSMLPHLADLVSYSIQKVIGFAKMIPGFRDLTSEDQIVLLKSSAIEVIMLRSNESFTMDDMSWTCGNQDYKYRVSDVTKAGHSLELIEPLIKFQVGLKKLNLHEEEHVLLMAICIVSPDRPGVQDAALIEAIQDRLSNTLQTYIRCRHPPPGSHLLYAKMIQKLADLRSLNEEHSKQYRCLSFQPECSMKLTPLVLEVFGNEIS
#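 Measured by FP: displacement of SRC2-3 coactivator peptide from VDR by library compounds, following a two-hour ambient incubation.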
# * marks the source's active call; other numbers are inactive results; ? = inconclusive; & = joins results of further samples. % is set by controls: 0 for no effect and ±100 for the full control effect; potency is the fitted concentration of half-maximal effect.
mol,VDR inhibitor
COc1ccccc1C(=O)OCC(=O)N1CCC(Cc2ccccc2)CC1,-4%
COc1cc(C(=O)NCC(=O)N/N=C(/C)c2ccc3c(c2)CCCC3)cc(OC)c1OC,9%
N#C/C(=C\c1cn(Cc2cccc(F)c2)c2ccccc12)C(=O)NCc1ccco1,-1%
COc1ccccc1N(Cc1cc(=O)[nH]c2ccccc12)C(=O)c1ccc([N+](=O)[O-])cc1,-27%
CCc1ccc(NC(=O)c2sc(-n3nc(C)c(Cc4ccc(OC)cc4)c3C)nc2C)cc1,14%
O=C(c1cc(COc2cccc(C(F)(F)F)c2)on1)N1CCc2ccccc2C1,-8%
COc1ccc(CN(C)C(=O)CNC(=O)c2sc3ccccc3c2Cl)c(OC)c1OC,-1%
CCOC(=O)N1CCN(C(=O)CN(Cc2ccc(Cl)cc2)S(=O)(=O)c2ccc(C)cc2)CC1,-9%
CCOC(=O)c1c(S(=O)(=O)N2CCCC(C(=O)Nc3cccc(CC)c3)C2)c(C)n(CC)c1C (configuration not stated),7%
COc1cccc(/C=N/n2c(-c3ccco3)nc3ccccc3c2=O)c1OC,-8%
CC(C)N(C(=O)CSc1n[nH]c(=O)n1CCc1ccccc1)C(C)C,-9%
O=C(COc1ccc(F)cc1)Nc1nccs1,1%
CCOC(=O)c1nc(C)n(-c2ccc(Cl)cc2Cl)n1,9%
O=C(Nc1ccccc1N1CCOCC1)c1ccc2c(c1)C(=O)N(Cc1ccncc1)C2=O,-7%
CC(=O)N1CC(C)Sc2ccc(S(=O)(=O)NCCc3ccc(C)cc3)cc21 (configuration not stated),0%
COc1ccc(NC(=O)c2ccc([N+](=O)[O-])cc2[N+](=O)[O-])c(OC)c1,-8%
CCN(CC)C(=S)SCC(=O)Nc1cccc(C(F)(F)F)c1,-1%
N#CCCN(C(=O)CSc1nc2nc(-c3cccs3)cc(C(F)(F)F)c2c(=O)[nH]1)c1ccccc1,-1%
Nn1c(COc2ccc(Cl)cc2)n[nH]c1=S,-1%
Cc1cc(NC(=O)c2ccc(C#N)cc2)n(-c2ccccc2)n1,-4%
O=C(CN(c1cc(C(F)(F)F)ccc1Cl)S(=O)(=O)c1ccccc1)NCCc1ccccc1,-8%
Cc1ccc(CN2CC(C(=O)NNC(=O)Cn3ccc(C(F)(F)F)n3)CC2=O)cc1 (configuration not stated),9%
COc1ccc(NS(=O)(=O)c2ccc(C)c(C(=O)N(C)Cc3ccc(C)cc3)c2)cc1,9%
O=C(Nc1cccc(C(=O)OCc2cc(=O)n3ccsc3n2)c1)c1ccc(F)cc1,19%
O=C(/C=C/Nc1cccc([N+](=O)[O-])c1)c1cccs1,-5%
CCn1nc(C)c(CN2CCN(Cc3ccsc3)C(CCO)C2)c1C (configuration not stated),8%
COc1cc(NC(=O)c2cc(C(C)C)on2)cc(OC)c1OC,3%
Cc1c(-c2ccc(Cl)cc2)noc1C1CCN(CCc2ccccc2)CC1,4%&6%
Cc1nc(N)sc1-c1csc(Nc2ncccn2)n1,6%
Cc1cc(C(=O)Nc2ccc(C)c(S(=O)(=O)N3CCOCC3)c2)c2ccccc2n1,3%
NS(=O)(=O)c1ccc(CCNC(=O)/C=C/c2ccccc2[N+](=O)[O-])cc1,-11%
CC1C2CC(C/C2=N/NC(=O)c2cccs2)C1(C)C (configuration not stated),3%
CS(=O)(=O)N1CCN(c2ccc(NC(=S)NC(=O)c3ccc4c(c3)OCO4)cc2)CC1,-9%
CN(C)C(=O)CN1c2cccc3cccc(c23)S1(=O)=O,-2%
C=CCSc1nnc(Cc2cc(=O)[nH]c(=O)[nH]2)n1-c1cc(C)ccc1C,0%
O=C(c1cn(-c2ccccc2)nc1-c1cccnc1)N1CCN(S(=O)(=O)c2cccc(F)c2)CC1,12%
COC(=O)c1ccc(/C=N/NC(=O)c2cccc(F)c2)cc1,-5%
COc1ccccc1NC(=O)Cn1c(=O)n(CCc2c[nH]c3ccccc23)c(=O)c2cccnc21,5%
N/C(=N\OC(=O)Cc1cccc2ccccc12)c1ccccn1,14%
CCn1nc(C(=O)OCC(=O)N(CCC#N)c2ccccc2)c2ccccc2c1=O,3%
COc1ccccc1/C=N/NC(=O)c1ccccc1NS(=O)(=O)c1ccc(C)cc1,-3%
Cc1ccccc1C1=N/C(=C/c2cccnc2)C(=O)O1,71µM*
N/C(=N\OC(=O)CCC1CCCC1)c1cccc([N+](=O)[O-])c1,-18%
CC(C)N(C(=O)COC(=O)c1ccccc1C(=O)N1CCN(c2ccc(F)cc2)CC1)C(C)C,6%
CN1C(=O)Cc2cc(S(=O)(=O)N3CCN(c4ccccc4F)CC3)ccc21,-7%&12%
COc1ccc(C(=O)NC2CC2)cc1OC1CCN(Cc2ccc(F)c(F)c2)CC1,6%
CCOc1ccc(OCC)c(NC(=O)CCSCCc2ccccn2)c1,10%
Cc1csc(NC(=O)c2ccc(COc3ccccc3)o2)n1,-10%
CN(C)c1nc(N)c([N+](=O)[O-])c(NCCO)n1,-3%
CC(C)(C)C(=O)Nc1cc(-c2cccc(Br)c2)nn1-c1ccccc1,21%
CC1CC(CC(=O)NNc2nc(-c3ccccc3)cs2)C(=O)O1 (configuration not stated),0%
COc1ccc(N(CC(=O)NCc2ccc(Cl)cc2)S(=O)(=O)c2c(C)nn(C)c2C)cc1,3%
COc1ccccc1OCCSc1nc(C)c(Cc2ccccc2)c(=O)[nH]1,-12%
COc1cccc(CNC(=O)c2cccc(N3CCCS3(=O)=O)c2)c1,9%
COc1ccc(S(=O)(=O)NC(C)C(=O)Nc2cccc(C(C)=O)c2)cc1 (configuration not stated),13%
COC(=O)C1(CC2CC(c3ccccc3)=NO2)CCN(C(=O)OC(C)(C)C)CC1 (configuration not stated),-9%
O=S(=O)(NCc1ccccc1F)c1cccc(S(=O)(=O)N2CCOCC2)c1,14%
c1ccc([C@H]2CC3C[C@@H](c4ccccc4)N2O3)cc1,-2%
Cc1cc(F)ccc1S(=O)(=O)N1CCCOC1CNC(=O)C(=O)NCC(C)C (configuration not stated),-11%
COc1ccc(NC(=O)CN(C)CC(=O)Nc2cccc(C(F)(F)F)c2)cc1,-4%

# More results
mol,VDR inhibitor
COc1ccc(C(=O)C(CN2CCCC2)c2ccccc2)cc1 (configuration not stated),?
CCOC(=O)c1c(NC(=O)Cc2coc3cc(C)cc(C)c23)sc2c1CCC2,30%
CC(=O)c1ccc(NC(=O)c2cc(C)nc3c2c(C)nn3-c2ccc(C)cc2)cc1,-1%
Cc1cc(Cl)ccc1NC(=S)NCc1ccco1,13%
S=C(NCc1ccccc1)Nc1cccc2ccccc12,20%
Cc1ccccc1NC(=S)NCCc1ccccc1,-13%
O=P(O)(O)C(O)C(F)(F)C(F)(F)C(F)(F)C(F)F (configuration not stated),20%
O=C(c1ccccn1)N1CCN(S(=O)(=O)c2ccc3ccccc3c2)CC1,5%
CC(C)C(NC(=O)c1c(F)cccc1F)C(=O)NC1CC(C)(C)NC(C)(C)C1 (configuration not stated),1%
CC(=O)COc1nc2c(c(-c3ccco3)c1C#N)CCc1ccccc1-2,9%
O=C(NC1CCCCCC1)C(=S)NC1CCCCC1,-10%
COc1ccc(NC(=O)CNC(=O)c2nn(-c3ccc(OC)c(OC)c3)c(=O)c3ccccc23)c(OC)c1,17%

# Looked up by compound from above:
mol,VDR inhibitor
CCOC(=O)c1c(NC(=O)Cc2coc3cc(C)cc(C)c23)sc2c1CCC2,30%
S=C(NCc1ccccc1)Nc1cccc2ccccc12,20%
CC(=O)COc1nc2c(c(-c3ccco3)c1C#N)CCc1ccccc1-2,9%
O=P(O)(O)C(O)C(F)(F)C(F)(F)C(F)(F)C(F)F (configuration not stated),20%
O=C(NC1CCCCCC1)C(=S)NC1CCCCC1,-10%

# Other structures
> CC(=N[C@@H]1CCCC[C@H]1N=C(C)c1ccccc1O)c1ccccc1O
  VDR inhibitor = 1%

> Cn1c(SCC(=O)Nc2ccc(NC(=O)c3ccccc3F)cc2)nnc1-c1ccncc1
  VDR inhibitor = 14%

> COC(C[C@@H]1O[C@@H]1[C@H](O)[C@H](C)OCc1ccccc1)OC
  VDR inhibitor = -25%

> COCCNC(=O)C(c1cccs1)N(C(=O)Cn1nnc2ccccc21)c1ccc(OC)cc1 (configuration not stated)
  VDR inhibitor = -10%

> CCOC(=O)c1cc(-c2csc(Nc3c(C)cc(C)cc3C)n2)on1
  VDR inhibitor = 10%

> COc1ccc(CCN2C(=S)N(C)C(=O)C2CC(=O)Nc2ccc(F)cc2)cc1 (configuration not stated)
  VDR inhibitor = -7%

> C=CCN(CC=C)Cc1ccc(C(=O)OC)o1
  VDR inhibitor = -4%

> CCCOc1ccc(C=Nc2ccc(OC)c(S(=O)(=O)N3CCOCC3)c2)c(O)c1
  VDR inhibitor = -8%

> Cc1ccn2cc(C(=O)NC3CCN(Cc4ccccc4)CC3)nc2c1
  VDR inhibitor = 3%

> COc1ccccc1OCC(=O)NCCS(=O)(=O)N1CCN(c2ccccc2)CC1
  VDR inhibitor = -9%

> O=S(=O)(c1ccccc1)C1CON(Cc2ccccc2)C1c1ccccc1 (configuration not stated)
  VDR inhibitor = 17%

> COC(=O)CSc1[nH]c2ccc(Br)cc2c1[N+](=O)[O-]
  VDR inhibitor = ?

> O=C(c1ccc(CNS(=O)(=O)c2ccc(Br)cc2)cc1)N1CCCCC1
  VDR inhibitor = 12%

> O=C1C=C(NCc2ccco2)CC(c2ccc(Cl)cc2)C1 (configuration not stated)
  VDR inhibitor = 10%

> O=C(Nc1ccc(-n2cnnn2)cc1)c1cc(S(=O)(=O)N2CCCC2)ccc1Cl
  VDR inhibitor = 13%

> COc1ccc(OCCC(=O)N2CCOCC2)cc1
  VDR inhibitor = 9%

> O=c1cc(-c2cccc(F)c2)[nH]c2cc(F)ccc12
  VDR inhibitor = 7%

> Cc1cc(Nc2ncc(Cl)cc2Cl)n(-c2ccccn2)n1
  VDR inhibitor = -14%

> COc1cccc(C2CC(=O)Nc3c2c(=O)nc2c(C)cccn32)c1 (configuration not stated)
  VDR inhibitor = -20%

> COc1ccc(C2C(C(C)=O)=C(O)C(=O)N2c2ccccn2)cc1 (configuration not stated)
  VDR inhibitor = -9%

> COc1ccc(-c2ccc3c(c2)C2CC3CCN2S(=O)(=O)c2ccccc2C)cc1 (configuration not stated)
  VDR inhibitor = -3%

> O=c1[nH]c(CSc2nnc(NCCCN3CCOCC3)s2)nc2cc(Cl)ccc12
  VDR inhibitor = 8%

> Cc1ccc(C(c2sc3nc(-c4ccco4)nn3c2O)N2CCOCC2)cc1 (configuration not stated)
  VDR inhibitor = -5%

> CC(C)(C)CC(=O)Nc1nnc(-c2cccs2)s1
  VDR inhibitor = -13%

> COc1ccc(C)cc1NS(=O)(=O)c1ccc2c3c(cccc13)C(=O)N2
  VDR inhibitor = -114%

# In a second layout: 6 of the compounds above.
VDR inhibitor,SMILES
10%,CCOC(=O)c1cc(-c2csc(Nc3c(C)cc(C)cc3C)n2)on1
-7%,COc1ccc(CCN2C(=S)N(C)C(=O)C2CC(=O)Nc2ccc(F)cc2)cc1 (configuration not stated)
-4%,C=CCN(CC=C)Cc1ccc(C(=O)OC)o1
-8%,CCCOc1ccc(C=Nc2ccc(OC)c(S(=O)(=O)N3CCOCC3)c2)c(O)c1
3%,Cc1ccn2cc(C(=O)NC3CCN(Cc4ccccc4)CC3)nc2c1
-9%,COc1ccccc1OCC(=O)NCCS(=O)(=O)N1CCN(c2ccccc2)CC1

# The list goes on.
> CNC(=O)c1c(NC(=O)c2cc(=O)c3ccccc3o2)sc2c1CCC2
  VDR inhibitor = 20%

> CCOC(=O)C1CCN(C(=O)c2n[nH]c(=O)c3ccccc23)CC1
  VDR inhibitor = -3%

> CCC(C)N(C(=O)Cn1cnc2c1c(=O)n(C)c(=O)n2C)C1CCS(=O)(=O)C1 (configuration not stated)
  VDR inhibitor = -15%

> N#CC1=C(N)OC2=C(C(=O)CCC2)C1CCc1ccccc1 (configuration not stated)
  VDR inhibitor = -12%

> Cc1ccc2onc(CNC(=O)N3CCN(c4cccc(C)c4C)CC3)c2c1
  VDR inhibitor = -9%

> CC(C)CCNC(=O)C(c1cccnc1)N(Cc1ccccc1)C(=O)Cn1nnc2ccccc21 (configuration not stated)
  VDR inhibitor = -3%

> O=C(Oc1cccnc1)c1ccco1
  VDR inhibitor = 19%

> CCOc1ccc(-c2cnc(NCc3cccc(Cl)c3)n2C)cc1
  VDR inhibitor = -1%

> Cc1c(N2C(=O)/C(=C/C3CC=CCC3)SC2=S)c(=O)n(-c2ccccc2)n1C (configuration not stated)
  VDR inhibitor = ?

> CCOC(=O)c1c(C)oc2ncnc(Nc3ccc(OC)cc3OC)c12
  VDR inhibitor = -9%

> COc1ccc(N2C(=O)CC(Sc3nc4c(cc3C#N)CCC4)C2=O)cc1 (configuration not stated)
  VDR inhibitor = -1%

> Cc1ccc(N2C(=O)C3C4C=CC(CNC(=S)N5CCN(c6cccc(C)c6)C(C)C5)(O4)C3C2=O)cc1 (configuration not stated)
  VDR inhibitor = ?

> CCCc1cc(=O)oc2cc(C)cc(OC(=O)c3ccco3)c12
  VDR inhibitor = -6%

> CCc1cc(C(N)=S)ccn1
  VDR inhibitor = -20%&-3%&9%&-17%

> COc1ccc(C2=NS(=O)(=O)N(C)C(C(=O)N3C(C)CCCC3C)=C2)cc1 (configuration not stated)
  VDR inhibitor = -21%

> CC(=O)NC(=S)Nc1ccc(NC(=O)c2cccnc2)cc1
  VDR inhibitor = -11%

> Cc1cccc(-n2c(-c3ccncc3)n[nH]c2=S)c1C
  VDR inhibitor = ?

> CC1=CS(=O)(=O)CC1Sc1ncn[nH]1 (configuration not stated)
  VDR inhibitor = 5%

> CN(C)c1nc(NCc2ccccc2)nc(SCC(=O)Nc2ccc(Cl)c(Cl)c2)n1
  VDR inhibitor = 11%

> CC1(C)Cc2nc3sc4c(N(CCO)CCO)nnnc4c3cc2CO1
  VDR inhibitor = -8%

> O=C(CN1CCCCC1)Nc1nc(-c2ccc(F)c(F)c2)cs1
  VDR inhibitor = 3%

> COc1ccc(NC(=S)N(CCCN2CCOCC2)Cc2ccccn2)cc1
  VDR inhibitor = -2%

> Cn1cc(P(=S)(N2CCOCC2)N2CCOCC2)cc1P(=S)(N1CCOCC1)N1CCOCC1
  VDR inhibitor = -16%

> CSc1ccc(S(=O)(=O)N2CCC(C(=O)Nc3ccc(C(N)=O)cc3)CC2)cc1
  VDR inhibitor = 7%

# Only part of the results is shown. The share of hits here may be higher or lower than overall.
